# Screens (PubChem BioAssay)
# Sa ugtP lethal: compounds lethal to S. aureus RN4220 ugtP deletion mutant. OD600 growth, 16 h; some inactives read as strong as hits. growth inhibition, % (concentration not given with the values). actives 0.54% (n = 330,000). AID 1259309;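 active = z-score under -3 and OD600 up to 0.15 on both plates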;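 also: plate controls were untreated wells for no effect and antibiotic for full effect; wells of about 80 µL received 100 nL stock; the first replicate is given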
# Mtb hypoxia rep: inhibitors of hypoxia-regulated fluorescent reporter in Mycobacterium tuberculosis. actives 0.1% (n = 300,000). fluorescence inhibition, % (no concentration beside the values). M. tuberculosis hypoxia-regulated fluorescent reporter, fluorescence. AID 1159583;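 active = 35 to 45% if threefold the growth effect, above 45% if 1.5-fold the growth effect; inactive = the rest, general growth blockers included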;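 also: wells of about 50 µL received 100 nL stock; 0% = vehicle wells and 100% = reference inhibitor wells; whole bacteria with a GFP reporter of the hypoxia response; strong numbers were not always called active; many hits fall short of the cut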
# BJeLR lethal: kills HRASV12-expressing BJeLR cells; inhibition, % (test concentration not listed); actives 0.17% (n = 300,000); AID 1554; BJeLR (HRASV12) viability, CellTiter-Glo ATP luminescence, 48 h; reference of the scale not given here;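 active = replicate mean above 50%; inconclusive = above 50% but judged a plate artefact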;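 also: 50 nL library stock added to about 25 µL; numbers are from one replicate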
# Bead autofluor: counter-screen for toxin protease inhibitors: compound fluorescence; compound autofluorescence counterscreen, microsphere flow cytometry; stronger effect = higher value; actives 3.1% (n = 360,000); fluorescence intensity (concentration not given with the values);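 active = at least 3 SD above the mean of all compounds, about 16000 in these data; inconclusive = too few beads counted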;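 also: 100 nL of 1 mM stock went into each well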
# PrP UTR inh: inhibition of PrP 5' UTR reporter expression; cell-based PrP 5' UTR mRNA reporter, plate reader; inhibition, % (concentration not given with the values); actives 0.35% (n = 340,000); AID 488862;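 active = every replicate at 50% or more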;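 also: 0 = median of the neutral control wells; tested in H4 reporter cells; numbers are from one replicate; inactives centre near -14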
# RN4220 kill: kills Staphylococcus aureus RN4220; actives 0.33% (n = 330,000); AID 1259311; inhibition, % (test concentration not listed); S. aureus RN4220 growth, OD600, 16 h;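 active = z-score of -3 or lower and OD600 up to 0.18 on both plates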;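 also: plate controls were untreated cells for no effect and reference antibiotic for full effect; stock transfer was 100 nL into about 80 µL; one replicate is shown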
# Mtb hypoxia rep growth: recorded beside Mtb hypoxia rep, whose call it bears; growth inhibition, %; measured here: M. tuberculosis growth (absorbance);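 0% = vehicle and 100% = reference antibiotic; read after six days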
# Active calls of the source: *; ? = inconclusive; . = no result given.
1. CCOc1ccc(CN2CCN(Cc3[nH]c4ccccc4c3C)CC2CCO)cc1 (centres undefined)
2. S=c1nc(NCc2ccc3c(c2)OCO3)c2ccccc2[nH]1
3. Cc1nc(=O)c(-c2ccccc2)c(C)n1-c1ccccc1C(=O)O
4. CCCCCCC(O)(CCN1CCCCC1)c1ccccc1 (centres undefined)
5. Fc1ccc(CSc2ccc3nnc(-c4cccs4)n3n2)cc1
6. Cc1ccc(C(=O)NCC(=O)OCC(=O)Nc2ccc3[nH]c(=O)[nH]c3c2)cc1
7. CCOc1cc(/C=N/NC(=O)CCn2nnc3ccccc32)ccc1O
8. O=C(CSc1nc(NS(=O)(=O)c2ccccc2)cc(=O)[nH]1)Nc1ccc(Cl)cc1

Assay by compound	1	2	3	4	5	6	7	8
Sa ugtP lethal	10.8	4.2	-0.7	8.7	-0.6	9.5	.	-6.5
Mtb hypoxia rep	13.5	7.2	9.5	-0.6	-3.6	-0.5	.	0.7
Mtb hypoxia rep growth	-0.1	0.8	5.5	14.2	8.3	8.8	.	2.9
BJeLR lethal	-1.8	9.7	-8.5	-7.8	12.8	-6.9	0.1	.
Bead autofluor	2597	3040	6407	3702	2622	4836	5993	4729
PrP UTR inh	2.0	-11.2	-12.1	-14.3	-15.9	-5.0	0.9	-7.9
RN4220 kill	1.1	1.2	-0.3	3.6	0.4	-0.1	.	3.7

9. CCOc1ccccc1-c1nc(-c2cc3ccc(C)cc3[nH]c2=O)no1
10. O=C(c1ccc(Cl)cc1)c1cnc(Nc2ccccc2)s1
11. Cc1ccc(Cl)c(NC(=O)COC(=O)c2ccccc2C(=O)c2ccc(Cl)c([N+](=O)[O-])c2)c1Cl
12. O=C(NC(=S)Nc1cccc(Cl)c1N1CCCCC1)c1cccs1
13. COC(=O)c1cc(C(=O)OCC(=O)N2CCCCC2)cc([N+](=O)[O-])c1
14. CC(C)CC1(C)NC(=O)N(CC(=O)Nc2ccccc2Br)C1=O (centres undefined)
15. CC(C)Nc1nc2ccccc2c(=O)[nH]1
16. O=S(=O)(c1cc(Cl)ccc1Cl)N1CCc2ccccc21

Assay by compound	9	10	11	12	13	14	15	16
Sa ugtP lethal	-16.0	6.2	-2.7	-15.4	10.0	1.0	1.8	7.1
Mtb hypoxia rep	-11.3	-4.9	10.4	12.0	9.6	13.8	5.0	-0.3
Mtb hypoxia rep growth	-3.4	-10.2	5.2	2.2	7.0	3.8	-0.6	-2.5
BJeLR lethal	-6.2	4.6	45.2	-17.6	.	.	-5.7	-11.4
Bead autofluor	16326*	16087	7681	7968	3263	3054	4537	3573
PrP UTR inh	-20.3	-66.4	-11.8	3.7	-16.6	-2.5	-19.6	4.5
RN4220 kill	-6.8	0.1	5.2	-4.4	5.0	1.1	7.2	1.7

17. Cc1cc(C)c(S(=O)(=O)Nc2ccc(O)cc2)cc1C
18. Nc1ccccc1SCC(=O)N1CCc2ccccc21
19. CCN1CCN(CC(c2ccccc2)c2ccccc2)CC1
20. O=C(Nc1ccc(F)cc1)c1cccnn1
21. O=C(CSc1nc2ccccc2c(=O)n1NC(=O)Cc1ccccc1)NCc1ccccc1
22. CCOC(=O)[C@H]1CCC[C@@H](NS(=O)(=O)c2ccc(NC(C)=O)cc2)C1
23. Cc1cccc(C)c1OC(=O)Cc1ccccc1
24. Cc1cccc(CS(=O)(=O)Cc2ccc(C(=O)NCCN3CCCCC3C)o2)c1 (centres undefined)

Assay by compound	17	18	19	20	21	22	23	24
Sa ugtP lethal	-0.6	-1.5	10.5	9.6	-6.8	-5.1	2.6	-2.1
Mtb hypoxia rep	13.3	.	13.9	13.7	3.9	.	-5.6	-0.7
Mtb hypoxia rep growth	4.8	.	-8.2	-4.8	10.0	.	-0.5	3.1
BJeLR lethal	-2.6	4.6	-1.8	4.5	-3.0	5.6	-7.5	14.9
Bead autofluor	9845	3705	3808	3489	23372*	2641	2620	12073
PrP UTR inh	-20.0	-38.2	-14.7	-18.8	-22.4	-34.5	-25.2	-15.9
RN4220 kill	9.3	5.6	1.4	1.3	13.7	-4.4	0.0	1.5

25. O=C(O)CCn1c(=O)sc2ccccc21
26. C=CCNC(=O)c1ccc2c3n(nc2c1)-c1ccc(C)cc1CO3
27. COc1ccccc1N1C(=O)CC(N2CCc3ccccc32)C1=O (centres undefined)
28. Cc1ccccc1C(=O)NC(=S)Nc1ccc(Oc2ccc(Cl)cc2)cc1
29. N#CCc1c(C#N)c(N)nc(N2CCN(C=O)CC2)c1C#N
30. O=C(NCc1ccc(C(=O)N2CCC3(CC2)OCCO3)cc1)c1ccc2c(c1)OCO2
31. CC1=C(C(=O)OC2CCCC2)C(c2coc3ccccc3c2=O)C2=C(CCCC2=O)N1 (centres undefined)
32. COc1ccc(C2CN(C)CC2C(=O)c2ccc(F)cc2)cc1Cl (centres undefined)

Assay by compound	25	26	27	28	29	30	31	32
Sa ugtP lethal	-3.9	3.8	0.1	86.4*	6.0	0.7	-16.1	-5.4
Mtb hypoxia rep	1.4	13.1	-0.4	.	-0.3	-4.8	-16.6	2.3
Mtb hypoxia rep growth	12.6	6.7	-2.3	.	2.9	7.3	9.0	12.0
BJeLR lethal	-5.9	8.5	-13.6	-5.1	-0.9	-9.3	4.1	-4.0
Bead autofluor	4244	3624	6314	2576	4461	10679	4065	3856
PrP UTR inh	-19.8	-51.8	-19.6	-14.7	-47.4	-36.6	-50.6	-18.6
RN4220 kill	0.6	6.5	1.7	-14.3	6.4	1.1	1.4	-1.8

33. Cc1c(C(=O)NCCN(C)C)oc2ccc(S(=O)(=O)N3CCCC3)cc12
34. O=C(CN1CC(c2ccccc2)CC1=O)Nc1cccc(F)c1 (centres undefined)
35. N#Cc1ccsc1NC(=O)CN1CCCCCC1
36. CCOc1ccc(NC(=O)c2cccc3ccccc23)cc1
37. Cc1nc2ccc(Br)cn2c1NC(C)(C)C
38. COC(=O)c1sccc1NC(=O)/C=C/c1ccc(Cl)cc1
39. O=C(O)c1nccnc1C(=O)Nc1ccc(S(=O)(=O)N2CCOCC2)cc1
40. CC1(C)NC(=O)N(CC(O)COc2ccccc2C(=O)Nc2ccccc2)C1=O (centres undefined)

Assay by compound	33	34	35	36	37	38	39	40
Sa ugtP lethal	11.6	7.3	1.0	9.6	7.0	.	10.1	-4.2
Mtb hypoxia rep	1.6	.	6.6	9.0	18.2	.	0.1	1.1
Mtb hypoxia rep growth	0.1	.	8.9	-8.9	19.8	.	0.2	13.4
BJeLR lethal	4.9	-9.7	4.0	21.4	-0.9	16.4	0.7	-3.9
Bead autofluor	5176	4362	4768	3703	8009	2174	6139	23718*
PrP UTR inh	-22.5	0.8	-10.9	-41.7	-13.4	-70.0	-1.9	-13.4
RN4220 kill	-1.3	-0.4	-1.4	3.7	2.6	.	5.9	1.9

41. COc1ccc(C(=O)NCCc2nnc(SCc3nc4ccccc4c(=O)[nH]3)n2C)cc1
42. Cc1ccc(C2=[N+]([O-])C3(CCCCCC3=NNC(N)=O)N(O)C2(C)C)o1 (centres undefined)
43. Cc1cc(C(=O)CSc2nnc(N)s2)c(C)n1CCc1ccc(Cl)cc1
44. CCN1CCN(c2cc(N3CCc4ccccc4C3)c(F)cc2[N+](=O)[O-])CC1
45. O=C1c2ccccc2C(=O)N1CCCCN(C(=O)c1cccc([N+](=O)[O-])c1)c1ccc(Cl)cc1
46. COc1ccc(NC(=O)CN2CCC(C)CC2)cc1
47. COc1ccc(S(=O)(=O)n2nc(OC(=O)c3ccc(C)cc3)cc2N)cc1
48. CCOC(=O)CSc1nc2cc(C(=O)N3CCC(C(N)=O)CC3)ccc2c(=O)n1-c1ccccc1

Assay by compound	41	42	43	44	45	46	47	48
Sa ugtP lethal	-3.5	-3.2	40.8	-7.0	1.0	5.4	1.2	3.0
Mtb hypoxia rep	13.6	0.1	1.5	-0.1	3.6	-0.9	11.1	3.2
Mtb hypoxia rep growth	8.0	9.4	7.6	-4.0	6.7	2.8	11.1	5.0
BJeLR lethal	7.8	.	-1.1	3.2	-4.3	8.5	-4.6	1.4
Bead autofluor	3490	.	22078*	2021	20654*	17348*	4375	21305*
PrP UTR inh	-3.3	.	-27.3	-12.3	-14.6	-4.7	0.2	-3.7
RN4220 kill	-10.3	-9.2	8.5	-5.1	0.6	1.4	-0.4	3.0

49. Cc1ccc(CCC(=O)Nc2nccs2)o1
50. Cc1cc(NC(=O)COC(=O)c2ccc(NS(=O)(=O)c3ccc(C)c(C)c3)cc2)no1
51. COc1ccc(C(=O)NCC(c2ccco2)N2CCCCC2)cc1S(=O)(=O)Nc1ccc(C)cc1 (centres undefined)
52. O=C(Nc1nccs1)c1c(O)c2c([nH]c1=O)CCCC2
53. COc1ccc([C@@H]2C=C(C(=O)O)O[C@H](OCCCCO)C2)cc1
54. O=C1c2ccccc2N(Cc2ccc(Cl)cc2)C2=NCCN12
55. CCN(CC)C(=O)c1cccc2c1C(=O)c1ccccc1-2
56. Cc1cc(S(=O)(=O)Nc2ccc(C(=O)NCCCn3ccnc3)cc2)ccc1F

Assay by compound	49	50	51	52	53	54	55	56
Sa ugtP lethal	3.3	-4.5	-5.9	5.4	.	3.2	-8.2	1.3
Mtb hypoxia rep	3.9	1.0	1.8	11.9	.	-1.3	2.9	10.2
Mtb hypoxia rep growth	2.7	-1.8	-6.3	7.3	.	-3.3	8.2	5.9
BJeLR lethal	-10.0	-6.9	.	-2.1	1.1	-11.6	-5.7	-4.1
Bead autofluor	10135	3768	2973	4246	4099	2695	3961	5471
PrP UTR inh	-19.7	-17.6	-1.5	-95.3	-9.6	-21.1	-10.6	-24.9
RN4220 kill	8.6	3.6	-1.0	5.7	.	7.9	5.6	2.3

# Looked up by compound from the entries so far:
23. Cc1cccc(C)c1OC(=O)Cc1ccccc1
9. CCOc1ccccc1-c1nc(-c2cc3ccc(C)cc3[nH]c2=O)no1
1. CCOc1ccc(CN2CCN(Cc3[nH]c4ccccc4c3C)CC2CCO)cc1 (centres undefined)
33. Cc1c(C(=O)NCCN(C)C)oc2ccc(S(=O)(=O)N3CCCC3)cc12
8. O=C(CSc1nc(NS(=O)(=O)c2ccccc2)cc(=O)[nH]1)Nc1ccc(Cl)cc1

Assay by compound	23	9	1	33	8
Sa ugtP lethal	2.6	-16.0	10.8	11.6	-6.5
Mtb hypoxia rep	-5.6	-11.3	13.5	1.6	0.7
Mtb hypoxia rep growth	-0.5	-3.4	-0.1	0.1	2.9
BJeLR lethal	-7.5	-6.2	-1.8	4.9	.
Bead autofluor	2620	16326*	2597	5176	4729
PrP UTR inh	-25.2	-20.3	2.0	-22.5	-7.9
RN4220 kill	0.0	-6.8	1.1	-1.3	3.7

# Other structures:
57. CC1(C)Cc2c(c(N3CCOCC3)nc3sc(C(=O)Nc4ccc(Cl)cc4)c(N)c23)CO1
58. Cc1ccc(CNC(=O)COC(=O)CCC(=O)c2cccs2)cc1
59. Cc1nn(-c2ccccc2)c(N2CCCC2)c1/C=C1\N=C(c2ccc(F)cc2)OC1=O
60. CC(=NNc1ncc(Cl)cc1Cl)c1ccc(C#N)cc1
61. CCc1cccc(N(C(=O)c2csnn2)C(C(=O)NC(C)(C)C)c2ccncc2)c1 (centres undefined)
62. CCOC(=O)CN1C(=O)N[C@@H](c2ccco2)C(C(=O)OC)=C1C
63. COc1ccc(NC(=O)Nc2ccc3c(c2)C(=O)N(C(C)CO)CC(C)C(CN(C)C(=O)Nc2ccc(C(F)(F)F)cc2)O3)cc1 (centres undefined)
64. O=C(O)c1cccc2c1C(=NNc1ccc([N+](=O)[O-])cc1[N+](=O)[O-])c1ccccc1-2
65. CCOC(=O)C1C(=O)CC(C)(O)C(C(=O)OCC)C1c1cc(Br)ccc1OC (centres undefined)

Assay by compound	57	58	59	60	61	62	63	64	65
Sa ugtP lethal	7.5	1.6	2.4	1.8	-0.7	.	-1.3	-9.9	-4.2
Mtb hypoxia rep	1.3	9.6	-6.7	3.7	-12.9	.	-7.6	8.4	2.3
Mtb hypoxia rep growth	6.6	9.0	-3.8	3.4	3.4	.	8.2	3.2	12.0
BJeLR lethal	1.9	-1.5	-7.1	.	-2.0	-3.3	.	.	-1.9
Bead autofluor	3824	3974	2543	.	4452	4462	.	.	?
PrP UTR inh	-5.7	-76.5	-17.2	.	-4.9	-9.2	.	.	-30.0
RN4220 kill	2.7	1.3	3.3	-11.1	5.1	.	-4.4	10.4	10.7
